LANA-H2B inh: blocks KSHV LANA binding to histone H2A/H2B; inhibition, % (concentration not given with the values); AID 2629; actives 0.6% (n = 320,000); Q9QR71; cell-free LANA-H2A/H2B peptide, fluorescence polarization; in the data active means inhibition mostly above about 10%, no sharp cut-off; inactive means mostly below about 6.7%;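 further: stock transfer was 7.5 nL into about 10 µL; 0% = median of vehicle wells and 100% = median of positive control wells; one replicate is shown; the record names a cut of 25% in any replicate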
UCH37 inh: blocks the human deubiquitinase UCH37 | purified proteasome/UCH37, Ub-AMC cleavage fluorescence | actives 0.33% (n = 330,000) | inhibition, % (concentration not given with the values) | Q9Y5K5;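 active means mean of two replicates above 20%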;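 further: 0% = compound-free wells with enzyme and 100% = wells lacking proteasome; stock transfer was 100 nL into about 20 µL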
Target sequence (Q9Y5K5 whole entry, looked up): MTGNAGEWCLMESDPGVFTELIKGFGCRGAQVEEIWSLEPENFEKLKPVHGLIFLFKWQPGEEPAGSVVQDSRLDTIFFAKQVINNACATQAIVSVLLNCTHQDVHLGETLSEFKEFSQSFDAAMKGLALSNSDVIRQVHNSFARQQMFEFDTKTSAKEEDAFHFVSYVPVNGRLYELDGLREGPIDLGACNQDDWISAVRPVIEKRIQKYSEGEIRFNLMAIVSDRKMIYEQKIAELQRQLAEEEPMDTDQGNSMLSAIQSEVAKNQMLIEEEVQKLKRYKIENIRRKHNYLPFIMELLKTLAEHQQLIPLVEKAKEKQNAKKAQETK
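Material: Human UCH37 enzyme supplied as purified proteasome complex | Schedule: 30 min preincubation with enzyme, 25 min cleavage at room temperature | Detection: AMC fluorescence 355/460 nm | Measure: % inhibition of Ub-AMC cleavage fluorescence | Controls: Wells without proteasome as full block, compound-free enzyme plus substrate as uninhibited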
HNF4A DNA FP: change in binding of human HNF4 alpha to DNA | HNF4a-FITC DNA binding, fluorescence polarization, 1 h | activity change, % at 10 µM | actives 0.3% (n = 360,000) | AID 1224865; in the data active means activity change above about 30%, passing the limit was not always enough;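 further: controls were the assay level and a saturating level of protein; the project sought stronger binding though the title names inhibitors; some compounds called inactive have numbers as strong as hits; positive values seem to mean higher polarization but the record does not say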
E coli growth: inhibitors of Escherichia coli growth | OD600 absorbance (concentration not given with the values) | OD600, 23 h; hits give low values | actives 0.21% (n = 330,000);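 active means OD600 absorbance below the run mean of sample wells minus 3.6 SD, in any replicate, cut at about 0.56 in these data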;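 further: stock transfer was 300 nL into about 60 µL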
Beta2AR agonist: activates human beta-2 adrenergic receptor causing internalization; P07550; Am2.2-beta2AR cells, FAP receptor internalization, flow cytometry; reference of the scale not given here; response, % (test concentration not listed); actives 0.43% (n = 340,000); AID 504454;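 active means response above a set limit, near 3 SD of response in nonfluorescent compounds, cut at about 42% in these data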;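 further: stock transfer was 100 nL into about 11 µL; a reference agonist was the positive control; negative values mostly stem from fluorescent compounds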
Target sequence (P07550 whole entry, looked up): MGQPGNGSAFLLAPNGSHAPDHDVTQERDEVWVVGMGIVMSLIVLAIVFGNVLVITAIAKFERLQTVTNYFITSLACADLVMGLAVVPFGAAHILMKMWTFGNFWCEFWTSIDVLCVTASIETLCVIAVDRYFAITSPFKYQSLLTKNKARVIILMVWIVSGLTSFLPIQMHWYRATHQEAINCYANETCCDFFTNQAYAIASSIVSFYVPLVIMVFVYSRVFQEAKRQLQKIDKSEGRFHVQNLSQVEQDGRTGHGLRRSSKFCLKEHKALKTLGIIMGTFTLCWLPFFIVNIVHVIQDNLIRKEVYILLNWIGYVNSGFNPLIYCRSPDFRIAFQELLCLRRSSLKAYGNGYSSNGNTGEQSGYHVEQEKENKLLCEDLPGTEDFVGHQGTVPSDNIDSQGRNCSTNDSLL
FGF22 binding: shifts melting point of recombinant human FGF22; recombinant FGF22 thermal shift, SYPRO orange fluorescence; percent of sucrose octasulfate shift, DMSO zero; calls only at 9.99 µM; actives 1.5% (n = 340,000); AID 651658;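 active means melting point raised past a set limit in the mean and every replicate; three in four hits are not shown here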
Target sequence (Q9HCT0 whole entry, looked up): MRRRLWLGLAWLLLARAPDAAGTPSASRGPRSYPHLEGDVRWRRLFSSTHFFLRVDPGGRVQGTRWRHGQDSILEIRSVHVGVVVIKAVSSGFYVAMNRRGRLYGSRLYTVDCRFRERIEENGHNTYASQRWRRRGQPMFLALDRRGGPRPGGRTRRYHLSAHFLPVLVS
ALR H2O2 inh: inhibitors of human sulfhydryl oxidase ALR; purified ALR, DTT oxidation, H2O2 HRP-luminol luminescence; AID 485317; inhibition, % (no concentration beside the values); actives 3.8% (n = 290,000); P55789;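 active means mean and each replicate at 75% or more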;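 further: stock transfer was 7.5 nL into about 7.5 µL; 0% = neutral wells and 100% = wells with inactivated enzyme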
Active calls of the source: *; i = inactive; x = no result given. Not all compounds are listed, so the mix of outcomes need not match the whole.

SMILES	LANA-H2B inh	UCH37 inh	HNF4A DNA FP	E coli growth	Beta2AR agonist	FGF22 binding	ALR H2O2 inh
O=C(CSc1nc2ccccc2c(=O)n1-c1ccc(F)cc1)Nc1cc(S(=O)(=O)N2CCOCC2)ccc1Cl	1.1	-0.6	3.0	0.69	-5	x	-14
CCOC(=O)Nc1ccc2c(COC(=O)C(NS(=O)(=O)c3ccc(Cl)cc3)C(C)O)cc(=O)oc2c1 (centres undefined)	3.6	i	-2.0	0.72	8	i	-3
Cc1ccc(S(=O)(=O)c2c(N)n(NC(=O)c3ccccc3C)c3nc4ccccc4nc23)cc1	-3.5	-191	2.3	0.72	2	x	-8
CC(C)C[C@H](NC(=O)Nc1ccccc1F)C(=O)O	-0.8	3.8	-2.3	x	-2	x	-13
CC(=O)Nc1ccc(NC(=O)C2CCCN2S(=O)(=O)c2cccc(C(F)(F)F)c2)cc1 (centres undefined)	4.7	3.1	-2.0	0.74	-14	i	0
CCCCNS(=O)(=O)c1cccc(S(=O)(=O)N2CCCC2)c1	-8.6	4.1	1.3	0.74	12	x	-4
O=C(/C=C1\NC2(CCCC2)Cc2ccccc21)N1CCOCC1	9.4	4.7	-1.3	x	-3	x	-1
CC(C)Cn1c(N)c(C(=O)CSc2ncccn2)c(=O)n(C)c1=O	-2.5	0.0	-2.9	0.65	10	i	-4
CC(C)NC(=O)COc1coc(CN2CCN(C(=O)c3ccco3)CC2)cc1=O	-6.6	1.5	-2.6	0.67	1	i	-2
Cc1ccc2[nH]c(C)c(CCNC(=O)NC3CCCCC3)c2c1	2.2	3.6	2.2	0.7	-8	i	62
CCn1cc(C(=O)NCCCOC)c(=O)c2cc(S(=O)(=O)N(C)C3CCCCC3)ccc21	1.4	4.5	3.8	0.67	-9	i	-88
O=C(c1cc(-c2ccc(Cl)cc2)n(-c2ccc(Cl)c(Cl)c2)n1)N1CCOCC1	-1.5	5.2	2.8	0.74	30	x	-5
CCCCCC(=O)Nc1ccc2oc(-c3ccncc3)nc2c1	1.9	-24	-0.4	0.68	-1	x	-8
Cc1onc(-c2ccccc2Cl)c1C(=O)OCC(=O)c1ccccc1	4.4	3.9	-1.9	0.7	-2	i	-3
Cc1cccc(-c2nnc(SCc3ccc(C#N)cc3)n2Cc2ccco2)c1	-1.6	-0.6	-0.2	0.64	-6	x	-4
COc1ccc(CNc2nc(=S)[nH]c3cc(OC)c(OC)cc23)cc1	-3.8	-0.8	-1.9	0.67	-7	i	6
CC(=O)c1sc(N/N=C/c2cccc([N+](=O)[O-])c2)nc1C	0.5	x	-0.5	x	-17	i	-3
CCOC(=O)c1c(-c2ccc(OC)cc2)oc2cc(Br)c(O)cc12	-4.4	-200	-1.5	0.69	3	i	-3
CCOC(=O)c1nc(-c2ccc3c(c2)OCO3)[nH]c1C	-1.7	-0.1	1.6	0.71	-11	i	-7
COc1cccc(N2[C@@H](CC(=O)O)c3ccccc3S2(=O)=O)c1	2.8	-0.8	1.5	x	-3	i	15
Oc1c(C(Nc2nccs2)c2ccc(C(F)(F)F)cc2)ccc2cccnc12 (centres undefined)	x	-0.1	-3.1	0.7	36	i	x
O=C(CN1CCN(C(=O)c2cccc(F)c2)CC1)Nc1ccccc1F	-0.6	0.9	-0.5	0.73	-8	x	-17
Cc1ccc(N2C(=O)N(CC(=O)Nc3ccc(C)cc3Cl)C(=O)C2C)cc1 (centres undefined)	-1.0	0.1	-0.5	0.69	8	i	-5
CC(=O)Nc1cccc(C(=O)OC(C)C(=O)Nc2ccc(S(=O)(=O)N3CCCC3)cc2)c1 (centres undefined)	-1.7	x	-4.6	x	-9	i	-17
CN(C)c1ccc(/C=N/NC(=O)CCC(=O)NCc2ccccc2)cc1	5.4	x	-2.5	x	1	x	87*
Cc1cc(C)c(NC(=O)COC(=O)Cc2ccsc2)c(C)c1	-3.5	-0.4	-1.0	0.7	-11	x	1
CCCCn1c(N)c(N(CCOC)C(=O)C2CCN(C(=O)c3ccc(Cl)cc3)CC2)c(=O)[nH]c1=O	2.7	1.0	-0.8	0.68	2	i	1
CCOC(=O)C(C)Sc1nc(=O)n2cccc(C)c2n1 (centres undefined)	4.1	-7.6	2.6	0.68	-5	i	-4
O=C(COC(=O)c1cccs1)NCc1ccc2c(c1)OCO2	5.8	0.7	0.4	0.67	0	x	-5
CC[C@]12c3[nH]c4cc(CCC(=O)N(C)C)ccc4c3CCN1C(=O)[C@@H](CC(=O)NCc1cccc(C(F)(F)F)c1)C[C@@H]2C(=O)N1CCN(C(=O)c2ccco2)CC1	x	3.7	0.1	0.69	-11	i	x
COc1cc(/C=C(\C#N)C(=O)NC(C)C)ccc1OCc1ccc(C(=O)O)cc1	-0.6	2.7	1.9	0.67	3	x	x
COc1ccccc1N(CC(=O)NC(C)(C)C)C(=O)Cn1nnc(-c2ccc(C)o2)n1	-2.0	0.4	-0.3	0.71	-1	x	-8
CCOc1ccc(NC(=O)N2CC=C(n3c(=O)[nH]c4ccccc43)CC2)cc1	-4.1	-8.0	-0.7	0.73	-2	x	-9
CCCCN(CCCNC(=O)C1CCCN(S(=O)(=O)CCC)C1)Cc1ccccc1 (centres undefined)	-2.8	5.5	-4.4	0.7	-3	i	x
CCOC(=O)CCS(=O)(=O)c1nc(-c2ccccc2)cc(C(F)(F)F)n1	0.9	x	0.8	x	60*	x	87*
C[C@@H]1C(c2cccc(Cl)c2)=NN(c2ccccc2)[C@H]1C(=O)N1CCOC1=O	x	-226	-0.8	0.71	4	i	x
Nc1nc(Nc2ccccc2F)nc(N2CCOCC2)c1[N+](=O)[O-]	4.5	6.3	-1.2	0.7	6	i	-14
Cc1c(C=O)c(C=O)c(C)n1Cc1ccccc1	3.8	3.0	2.1	0.76	15	x	-4
Cc1ccc(Sc2ncccc2NC(=O)c2ccccc2Cl)cc1	6.0	3.6	1.0	0.68	-8	i	-35
O=S1(=O)CCN2C(Cc3ccc(SC(F)F)cc3)=CSC2=N1	0.9	0.1	4.5	0.73	0	x	45
CCCC1=Nc2cc(C(=O)N3CCC(C(N)=O)CC3)ccc2Sc2ccccc21	2.0	1.6	-1.9	0.63	2	i	-1
COc1cc(OC)c(C(=O)OCC(=O)NC23CC4CC(CC(C4)C2)C3)cc1OC	-2.0	-0.4	1.4	0.66	2	i	-1
CCOc1ccccc1NC(=O)NC1CCCc2ccccc21 (centres undefined)	-2.6	1.6	2.0	0.72	3	i	-9
O=C1NC(c2cccc(Br)c2)=N/C1=C\c1ccco1	4.9	1.4	1.8	0.72	3	i	x
CCCCOC(=O)c1ccc(NC(=O)C(=O)NCc2ccco2)cc1	-0.6	0.6	-0.9	0.67	2	i	-2
CCN1CCN(CCNC(=O)c2ccc(/C=C3/Sc4ccccc4N(Cc4cccc(Cl)c4)C3=O)cc2)CC1	-5.0	-10	7.8	0.61	38	i	-8
COc1ccccc1/C=N/NC(=O)CNC(=O)c1ccccc1	0.8	x	-1.6	x	2	i	0
Brc1ccc(CNc2ccc3ncccc3c2)cc1	6.1	-128	2.6	0.68	2	i	-127
CCN1CCN(CC(=O)N2N=CCC2c2ccccc2)CC1 (centres undefined)	4.4	1.3	3.3	0.61	5	i	-5
C=CC[C@H](CC(=O)OC(C)(C)C)C(=O)OC[C@H]1CCCN1C(=O)[C@H](CC=C)CC(=O)NCCO	1.8	-2.5	0.9	x	-6	i	1
COc1ccc(-c2ccc(SCC(=O)Nc3cc(C)on3)nn2)cc1OC	-5.5	2.1	-2.8	0.66	0	x	-3
CCOc1ccc(N2C(=O)CC(N3CC(C)OC(C)C3)C2=O)cc1 (centres undefined)	3.6	1.5	2.6	0.68	4	x	-4
CC(=O)Nc1sc(N)nc1-c1ccccc1	0.5	1.9	-4.8	0.73	-5	i	64
CCC(CC)c1nc(NCCC(=O)O)c2ccccc2n1	-1.6	2.9	0.5	0.71	4	x	-7
COc1ccc(/C=C2/CC/C(=C\c3ccc(OC)c(OC)c3OC)C2=O)c(OC)c1OC	x	-2.9	4.9	0.73	-1	x	x
CCCc1nnc(NC(=O)c2cc3ccccc3oc2=O)s1	-0.3	3.1	-1.2	0.72	-14	x	-17
CC(CNS(=O)(=O)c1cc(Cl)ccc1Cl)CN(C)C (centres undefined)	3.6	-1.3	3.1	0.69	2	x	-2
Cc1ccc(NC(=O)c2cc(N3C(=O)C4CC=CCC4C3=O)ccc2N2CCOCC2)cc1Cl (centres undefined)	3.3	-0.3	-1.2	0.76	3	x	-1
COc1ccc(-c2csc(NC(=O)CN3C(=O)C4CC=CCC4C3=O)n2)cc1OC (centres undefined)	8.2	0.8	2.6	0.68	4	i	x
Cc1oncc1C(=O)NC(C)C	2.0	1.2	-1.1	0.72	0	x	-2

New compounds follow
SMILES	LANA-H2B inh	UCH37 inh	HNF4A DNA FP	E coli growth	Beta2AR agonist	FGF22 binding	ALR H2O2 inh
CCOc1ccc(NC(=O)CN(C)C(=O)c2c(-c3ccccc3)noc2C)cc1OCC	-17	1.6	1.5	0.71	1	i	-17
CCOC(=O)C1CCN(C(=O)c2ccc(OC3CCN(C(=O)CCOC)CC3)cc2)CC1	2.0	0.2	-4.7	0.7	15	i	-2
CC(C)N(c1ccccc1)c1ccc(NC(=O)CCl)cc1	-1.9	6.1	-3.1	0.7	6	i	46
O=C(Nc1cccc(F)c1)C1CCN(C(=O)c2ccc(Br)cc2)CC1	3.5	2.5	-1.1	0.72	4	x	-7
O=C(NCc1ccc2c(c1)OCO2)C1CCC(CNS(=O)(=O)c2ccc(Cl)cc2)CC1 (centres undefined)	-0.6	1.7	0.6	0.68	40	i	0
CCO[C@H]1OC(C(=O)NC2CC2)=C[C@@H](C2CCCCC2)[C@@H]1CCCO	1.8	5.0	1.2	x	-9	i	6
O=C(CN1CCN(C(=O)CNC(=O)c2ccc(N3CCCC3=O)cc2)CC1)Nc1ccccc1Cl	x	-0.1	-0.4	0.61	-8	i	4
O=C(CCn1cccn1)Nc1ccc(-c2ccno2)cc1	-2.3	-0.3	-1.6	0.68	-9	i	-7
O=c1[nH]c(C2CCCN(S(=O)(=O)c3ccccc3Cl)C2)nc2c1nnn2Cc1ccc2c(c1)OCCO2 (centres undefined)	-0.1	4.4	2.0	0.71	6	i	6
CC1=C(C(=O)N(C)C)C(c2ccc(N3CCOCC3)cc2)NC(=O)N1 (centres undefined)	2.4	4.2	-5.3	0.64	5	i	-10
O=CN1CCN(C(=S)NC(=O)c2ccc(Cl)cc2)CC1	x	5.1	-3.3	0.74	-9	i	x
COc1ccccc1CNC(=O)COC(=O)C1CCN(S(=O)(=O)c2ccc(C)c(C)c2)CC1	-2.6	1.0	2.8	0.63	-3	i	-7

Continued, overlapping the part above by 4 compounds.
SMILES	LANA-H2B inh	UCH37 inh	HNF4A DNA FP	E coli growth	Beta2AR agonist	FGF22 binding	ALR H2O2 inh
O=c1[nH]c(C2CCCN(S(=O)(=O)c3ccccc3Cl)C2)nc2c1nnn2Cc1ccc2c(c1)OCCO2 (centres undefined)	-0.1	4.4	2.0	0.71	6	i	6
CC1=C(C(=O)N(C)C)C(c2ccc(N3CCOCC3)cc2)NC(=O)N1 (centres undefined)	2.4	4.2	-5.3	0.64	5	i	-10
O=CN1CCN(C(=S)NC(=O)c2ccc(Cl)cc2)CC1	x	5.1	-3.3	0.74	-9	i	x
COc1ccccc1CNC(=O)COC(=O)C1CCN(S(=O)(=O)c2ccc(C)c(C)c2)CC1	-2.6	1.0	2.8	0.63	-3	i	-7
CCN(C[C@H]1N[C@@](CC)(C(=O)OC)[C@H]2C(=O)N(C)C(=O)[C@@H]12)S(=O)(=O)c1ccc(C)cc1	i	4.9	0.0	0.71	1	i	1
Cc1cc(C(=O)NCc2ccco2)cs1	-0.8	-2.0	2.6	0.71	4	i	-4
CCCCCCCCC(=O)NC(NC(=S)N1CCOCC1)C(Cl)(Cl)Cl (centres undefined)	1.6	4.6	-1.7	0.67	2	x	x
O=C(NNC(=O)C12CC3CC(CC(Cl)(C3)C1)C2)c1csc(N2CCOCC2)n1	-5.2	x	-2.8	x	-2	i	-1

Assay outcomes: PubChem BioAssay, several laboratories
